Compound activity (PubChem BioAssay)
GIV-Gai inh – blocks GIV peptide binding to rat Galpha-i3 | Galpha-i3/FITC-GIV peptide fluorescence polarization, 90 min; active compounds read low; scaled: aluminum fluoride 0%, vehicle 100% | percent of control (FP), % (no concentration beside the values) | 210,000 compounds, 0.42% hits;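 active = replicate mean at 85% of control or lower, very high polarization wells dropped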;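 note: wells of about 15 µL received 100 nL stock; the first replicate is given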
Target sequence (P08753 whole entry, looked up): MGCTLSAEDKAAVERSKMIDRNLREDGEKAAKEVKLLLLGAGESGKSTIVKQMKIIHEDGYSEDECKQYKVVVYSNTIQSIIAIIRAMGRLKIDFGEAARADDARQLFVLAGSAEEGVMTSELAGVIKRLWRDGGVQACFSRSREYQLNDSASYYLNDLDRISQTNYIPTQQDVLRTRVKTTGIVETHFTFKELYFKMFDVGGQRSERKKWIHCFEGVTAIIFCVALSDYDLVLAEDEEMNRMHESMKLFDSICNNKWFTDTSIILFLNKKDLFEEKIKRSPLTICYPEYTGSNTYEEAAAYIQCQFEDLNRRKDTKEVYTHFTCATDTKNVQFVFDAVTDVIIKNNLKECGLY
Active calls of the source: *.

SMILES	GIV-Gai inh
Cc1cc(N2C(=O)NC(=O)/C(=C\c3ccc(OCC(=O)O)cc3)C2=O)ccc1Br	113
CCOC(=O)c1c(S(=O)(=O)N2CCC(C(=O)NCCc3nc4ccccc4[nH]3)CC2)c(C)n(C)c1C	102
CCOc1ccc(NC(=O)CSc2nc3n[nH]c(C)c3c(=N)n2-c2ccc(Cl)c(C)c2)cc1	111
COC(=O)c1c(NC(=O)c2c(-c3ccccc3)noc2C)sc2c1CCC(C)C2 (centres undefined)	105
CC(C)(C)c1cc(CCOC(=O)CCSCCC(=O)OCCc2cc(C(C)(C)C)c(O)c(C(C)(C)C)c2)cc(C(C)(C)C)c1O	108
O=S(=O)(c1ccc2c(c1)-c1oncc1CO2)N1CCN(c2ccccc2)CC1	107
O=C(Nc1cnc(N2CCN(c3ccc(F)cc3)CC2)c(C(=O)O)c1)c1ccc(Cl)cc1	110
CCn1c(CCc2cccc(NS(=O)(=O)c3cnc[nH]3)c2)nc2ccccc21	101
Cc1ccc(C2CC(c3cccs3)=NN2C(=O)CSc2nnc(CNC(=O)COc3ccccc3)n2C)cc1 (centres undefined)	102
COc1ccccc1NC(=O)C1=C(C)NC(SCC(=O)Nc2ccc(I)cc2)=C(C#N)C1c1ccccc1 (centres undefined)	108
CC(C(=O)NCc1cccs1)N1C(=O)C2CCCCN2C(=O)c2ccccc21 (centres undefined)	100
CN1C(=O)N(CCO)C2NC(=O)NC21 (centres undefined)	103
COc1cc(NC(=O)CSc2nc3ccccc3n2S(=O)(=O)c2ccc(Cl)cc2)cc(OC)c1OC	108
COc1ccc(CNS(=O)(=O)c2ccc(F)c(C(=O)Nc3ccc(Br)cc3F)c2)cc1	111
CCn1c(=O)c(C(=O)Nn2c(Cc3ccccc3)nc3ccccc3c2=O)c(O)c2ccccc21	104

6 compounds out of the list, sorted by molar mass, largest number first.
SMILES	GIV-Gai inh
Cc1ccc(C2CC(c3cccs3)=NN2C(=O)CSc2nnc(CNC(=O)COc3ccccc3)n2C)cc1 (centres undefined)	102
COc1ccc(CNS(=O)(=O)c2ccc(F)c(C(=O)Nc3ccc(Br)cc3F)c2)cc1	111
Cc1cc(N2C(=O)NC(=O)/C(=C\c3ccc(OCC(=O)O)cc3)C2=O)ccc1Br	113
O=C(Nc1cnc(N2CCN(c3ccc(F)cc3)CC2)c(C(=O)O)c1)c1ccc(Cl)cc1	110
CC(C(=O)NCc1cccs1)N1C(=O)C2CCCCN2C(=O)c2ccccc21 (centres undefined)	100
CN1C(=O)N(CCO)C2NC(=O)NC21 (centres undefined)	103

The results go on.
SMILES	GIV-Gai inh
CCC(C)NC(=O)c1ccc(-c2ccc(F)cc2)nc1 (centres undefined)	110
CCN(CC)C(=O)CN1C(=O)C2(NC(=O)c3ccccc3N2)c2ccccc21 (centres undefined)	109
O=C(NCC1CCCO1)c1cc2nc(-c3ccc(Br)cc3)cc(C(F)(F)F)n2n1 (centres undefined)	104
CCSc1nc2ccc(NS(=O)(=O)c3ccccc3F)cc2s1	102
COc1ccc(/C=C2\N=C(c3ccc(Cl)cc3)N(c3ccc(Cl)cc3C)C2=O)cc1OC	110
Cc1c(C(=O)N2CCC(C(N)=O)(N3CCCCC3)CC2)sc2ncnc(N3CCC(C)CC3)c12	103
O=S(=O)(c1cn(Cc2noc(COc3ccccc3)n2)cn1)N1CCOCC1	101
CN(CCc1noc(-c2ccc(C(=O)N3CCOCC3)cc2)n1)C(=O)c1ccc(Br)cc1	106
C=CCN1C(=O)C(=O)/C(=C(/O)c2ccc(C)cc2)C1c1ccc(Br)cc1 (centres undefined)	112
c1cc2nnc(C3CCC3)n2nc1N1CCOCC1	98
COc1ccc(OC)c(C2C3=C(CC(C)(C)CC3=O)Nc3ccc4ccccc4c32)c1 (centres undefined)	111
COc1ccc(NC(=O)C2=C(C)NC(=O)NC2c2ccc(Cl)cc2)cc1 (centres undefined)	102
CCOc1ccccc1N(C)C(=O)c1cc(S(=O)(=O)N2CCCc3ccccc32)ccc1F	105
O=C(Nc1ccc(-c2noc(-c3ccc(Cl)cc3)n2)cc1)c1ccc(Br)o1	108
Cc1cc(C)c(C2=NON3N(C(=O)c4ccc(Cl)cc4)c4ccccc4N23)c(C)c1	103

Fetched by structure from the entries so far (two):
SMILES	GIV-Gai inh
Cc1cc(C)c(C2=NON3N(C(=O)c4ccc(Cl)cc4)c4ccccc4N23)c(C)c1	103
c1cc2nnc(C3CCC3)n2nc1N1CCOCC1	98

Later entries:
SMILES	GIV-Gai inh
COCCNC(=O)N1CCN(c2cc(-c3ccc(F)cc3)ncn2)CC1	99
O=C1NC(=O)N(c2ccc(Cl)cc2)C(=O)/C1=C\c1cc2c(cc1Br)OCO2	119
CCN(CC)c1ncnc2c1c(-c1ccccc1)cn2-c1ccccc1	113
CN(CC1(C)CCOCC1)S(=O)(=O)c1cccc(F)c1	102
O=C(Nc1ccc(Cl)cc1)C1CCN(S(=O)(=O)c2ccc(-c3noc(C4CC4)n3)cc2)CC1	105
O=C(c1cccc(Br)c1)N1N=C(C(F)(F)F)CC1(O)c1ccc(F)cc1 (centres undefined)	105
CN1C(=O)C2(c3ccccc31)N1CC3(C)CN2CC(C)(C1)C3=O (centres undefined)	107
O=C1C(=O)N(c2nncs2)C(c2ccc(Cl)cc2Cl)/C1=C(/O)c1ccc(F)cc1 (centres undefined)	113
Oc1ccc(Cl)cc1C1CC(c2ccc(Cl)cc2)=NC2(CCNCC2)N1 (centres undefined)	102
COC(CNC(=O)c1c[nH]c2ccc(S(=O)(=O)N(C)c3ccc(Br)cc3)cc2c1=O)OC	104
CCOC(=O)c1sc2ncnc(Nc3cc(Cl)c(OC)cc3OC)c2c1C	102
COc1ccc(/C=N/c2oc(-c3ccccc3)c(-c3ccccc3)c2C#N)cc1[N+](=O)[O-]	102
COC(=O)c1ccc2c(=O)n(-c3ccc4c(c3)OCO4)c(N3CCCCC3)nc2c1	98
O=C(c1nnc(-c2ccc(S(=O)(=O)N3CCOCC3)cc2)o1)N1CCCC1	102
O=C(Cn1c(-c2ccccn2)nc2ccccc21)N=Nc1c(O)n(Cc2ccc3c(c2)OCO3)c2ccccc12	109
COc1ccc(C2/C(=C(/O)c3ccc(F)cc3)C(=O)C(=O)N2c2nccs2)cc1 (centres undefined)	111
Cc1ccc(/C(O)=C2\C(=O)C(=O)N(c3nncs3)C2c2ccc(C(C)C)cc2)cc1 (centres undefined)	109
CCOC(=O)c1c(NC(=O)c2c(F)cccc2F)sc2c1CCN(C)C2	99
COc1ccc(C2=NN(C(=O)CSc3nnc(CNC(=O)c4ccccc4F)n3C)C(c3ccc(C)cc3)C2)cc1 (centres undefined)	114
Cc1ccc(NS(=O)(=O)c2c(C)sc(C)c2-c2cc(C(F)(F)F)on2)c(C)c1	108
NC(=O)C1CCN(C(=O)c2ccc3c(=O)n(Cc4cccc(Br)c4)c(=S)[nH]c3c2)CC1	106
O=C(c1cccc(-n2c(=S)[nH]c3cc(Cl)ccc3c2=O)c1)N1CCN(c2ccccn2)CC1	104
COCc1cc(C)nc(SCC(=O)Nc2ccc(C(C)=O)cc2)c1C#N	108
CC(C)CNC(=O)C1CC(=O)N(c2ccc3c(c2)CCN3C(=O)C2CC2)C1 (centres undefined)	101
O=C1C2CCCCC2C(=O)N1c1ccc(S(=O)(=O)Nc2ncccn2)cc1 (centres undefined)	103
COc1cccc(N2C(=O)/C(=C\c3cc4c(cc3[N+](=O)[O-])OCO4)C(=O)NC2=S)c1	109
Cn1c(CNS(=O)(=O)c2ccc3c(c2)CCCC3)nc2cccnc21	105
Cc1nc2ncnn2c(Sc2ccc(NS(=O)(=O)c3ccc(Cl)cc3)cc2)c1C	100
O=C1c2cc(S(=O)(=O)Oc3ccccc3)cc([N+](=O)[O-])c2-c2c1cc(S(=O)(=O)Oc1ccccc1)cc2[N+](=O)[O-]	114
COc1ccc(Nc2c([N+](=O)[O-])cc(C(=O)N3CC(=O)Nc4ccccc43)cc2[N+](=O)[O-])cc1	117
O=C(NCc1ccccn1)C1CCCN(c2ncnc3c2oc2ccccc23)C1 (centres undefined)	98
O=C(NCc1ccco1)c1ccc2c(=O)n(CC3CCCO3)c(SCc3cccc([N+](=O)[O-])c3)nc2c1 (centres undefined)	102
Cc1c(CC(=O)Nc2ccc(F)cc2)c2c(=O)n(C)c(=O)n(C)c2n1C	105
CCOC(=O)c1c(CN2CCN(CC#N)CC2)n(-c2ccccc2)c2cc(Br)c(OC(C)=O)cc12	113
c1ccc(-n2ccnc2SCc2nc(-c3ccc4c(c3)OCO4)no2)cc1	105
Cc1cc(C)c2c(c1)-c1c(ssc1=S)C(C)(C)N2C(=O)C(C)C	106
Cc1nnc(-c2ccc(S(=O)(=O)N3CCC(C)CC3)o2)o1	106
O=C(CCCc1c[nH]c2ccccc12)Nc1cnc2ccccc2c1	102
O=C(C1CCN(c2nc(-c3ccc(Cl)cc3)no2)CC1)N1CCC(N2CCCCC2)CC1	104
COc1cccc(-c2cc3n(n2)CCCN(S(=O)(=O)c2c(C)nn(C)c2C)C3)c1	101
CCCc1[nH]n(-c2ccc(F)cc2)c(=O)c1C=Nc1ccc(CC)cc1	101
CCOc1cc(C2Nc3ccc4ccccc4c3C3=C2C(=O)CC(C)(C)C3)ccc1O (centres undefined)	110
O=C1/C(=C/c2c(NCCCn3ccnc3)nc3ccccn3c2=O)SC(=S)N1Cc1ccco1	159
COc1ccc(OC)c(NC(=O)c2c(NCc3cccc(OC)c3OC)sc3c2CCCCC3)c1	95
O=C(NCCC1=CCCCC1)C1CCN(c2nnc(N3CCOCC3)c3ccccc23)CC1	106

Single values from above:
Under GIV-Gai inh, `CCOc1ccccc1N(C)C(=O)c1cc(S(=O)(=O)N2CCCc3ccccc32)ccc1F` shows 105
Under GIV-Gai inh, `O=C(CCCc1c[nH]c2ccccc12)Nc1cnc2ccccc2c1` shows 102
Under GIV-Gai inh, `CCOC(=O)c1c(S(=O)(=O)N2CCC(C(=O)NCCc3nc4ccccc4[nH]3)CC2)c(C)n(C)c1C` shows 102
Under GIV-Gai inh, `CN(CCc1noc(-c2ccc(C(=O)N3CCOCC3)cc2)n1)C(=O)c1ccc(Br)cc1` shows 106
Under GIV-Gai inh, `COCc1cc(C)nc(SCC(=O)Nc2ccc(C(C)=O)cc2)c1C#N` shows 108

The listing continues:
SMILES	GIV-Gai inh
FC(F)(F)c1cccc(N=c2scc(-c3ccc4ccccc4c3)n2CCc2ccccc2)c1	106
CCOc1c(C(=O)OC)sc2ccc(NC(=O)NCc3cccc(OC)c3)cc12	96
COc1cc(C2C3=C(CC(C)(C)CC3=O)OC3=C2C(=O)CC(C)(C)C3)ccc1OC(=O)Nc1cccc(Cl)c1	111
COc1ccc(Br)cc1CN1CCCC1c1c(C)noc1C (centres undefined)	104
CCCCC(C(=O)OC(C)C)N1C(=O)C2C3c4ccccc4C(c4ccccc43)C2C1=O (centres undefined)	112
CC(C)NC(=O)N1CCCCCC1c1cccs1 (centres undefined)	97
COc1ccc(Cn2c(=S)[nH]c3cc(C(=O)Nc4ccc(OC)c(OC)c4)ccc3c2=O)cc1	104
COc1ccccc1C(=O)Nc1ccc(-c2nnc3n2CCCCC3)cc1	114
Nc1nc(N2CCCC2)nc2ccccc12	106
COc1ccc(-c2nc(-c3ccc(Br)cc3)c(-c3ccc(Br)cc3)[nH]2)c(OC)c1	115
O=c1n(Cc2cccc(Cl)c2)nc2c(S(=O)(=O)N3CCc4ccccc4C3)cccn12	107
CCOc1ccccc1NC(=O)C1=C(C)NC(=O)NC1c1ccc(OC)cc1 (centres undefined)	102
COCCN(CCOC)c1ncnc2c1c(-c1ccccc1)cn2-c1cccc(C(F)(F)F)c1	100
O=C(Nc1nc(-c2ccc(Br)cc2)cs1)c1c(O)c2cccc3c2n(c1=O)CCC3	108
O=S(=O)(c1ccc(-c2nnc(C3CC3)o2)o1)N1CCOCC1	105
Cc1ccc(C2=Nc3ccccc3N=C(c3ccc(C(C)(C)C)cc3)C2)c(O)c1	104
Cc1nc2c(n1C)CN(C(=O)c1ccc(Cl)s1)CC2	103
O=[N+]([O-])c1ccc(-c2nc(-c3ccc([N+](=O)[O-])cc3)c(-c3ccc(Oc4ccc(-c5nc(-c6ccc([N+](=O)[O-])cc6)[nH]c5-c5ccc([N+](=O)[O-])cc5)cc4)cc3)[nH]2)cc1	110
CC(O)(/C=C1/Oc2ccc([N+](=O)[O-])cc2C1N1CCOCC1)C1CC2C=CC1C2 (centres undefined)	103
CC1CCC(C(C)C)C(OC(=O)C(C(C)C)N2C(=O)C3C4c5ccccc5C(c5ccccc54)C3C2=O)C1 (centres undefined)	104
CCOC(=O)c1c(C)oc2ccc(N(C(=O)c3cccc([N+](=O)[O-])c3)S(=O)(=O)c3ccc(Br)cc3)cc12	109
O=S(=O)(Nc1cnn(-c2ncc(N3CCSCC3)cn2)c1)c1ccc2c(c1)CCC2	102
Cc1ccc(NC(=O)CSc2nc(C)cc(C(F)(F)F)c2C#N)cc1	118
COc1ccc(-n2nnc3c(N4CCN(S(=O)(=O)c5ccc(F)cc5F)CC4)ncnc32)cc1	104
CCN(CC)S(=O)(=O)c1ccc2c(c1)cc(C(=O)NCCc1ccc(S(N)(=O)=O)cc1)n2C	100
CNC(=O)c1cc(NS(=O)(=O)c2ccc3c(c2)CCCC3)cnc1N1CCNCC1	109
O=C1CSC2(N1)C1CC3CC(C1)CC2C3 (centres undefined)	124
CCC(=O)c1cn(CC(=O)NC(CC)c2ccc3c(c2)OCCCO3)c2ccccc12 (centres undefined)	101
O=C(CSc1nc2ccccc2[nH]1)NCC12CC3CC(CC(C3)C1)C2	101
Cc1nc(-c2cc(S(=O)(=O)NC3CCCCCC3)c(C)s2)sc1C	102
CC1CCN(S(=O)(=O)c2ccccc2-c2nc(-c3ccccc3)no2)CC1	103
COC(=O)c1cc(C)nc2c1c(=O)n(Cc1ccncc1)c(=O)n2-c1ccccc1	103

A run of entries from further up, as a working copy:
SMILES	GIV-Gai inh
Cc1ccc(C2=Nc3ccccc3N=C(c3ccc(C(C)(C)C)cc3)C2)c(O)c1	104
Cc1nc2c(n1C)CN(C(=O)c1ccc(Cl)s1)CC2	103
O=[N+]([O-])c1ccc(-c2nc(-c3ccc([N+](=O)[O-])cc3)c(-c3ccc(Oc4ccc(-c5nc(-c6ccc([N+](=O)[O-])cc6)[nH]c5-c5ccc([N+](=O)[O-])cc5)cc4)cc3)[nH]2)cc1	110

Only part of the results is shown. The share of hits here may be higher or lower than overall.
